NPYLR7 ag: activates Aedes aegypti NPYLR7 receptor; activation, % at 10 µM; 270,000 compounds, 0.15% hits; HEK293T NPYLR7/Galpha15, GCaMP6s calcium fluorescence; AID 1259423; in the data active = activation above about 40%;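 note: 0% = vehicle and 100% = reference agonist at the receptor; some compounds past the cut are filed as inactive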
NPYLR7 ag max-min: second read-out of NPYLR7 ag, no call of its own (marks repeat the call); activation, %; measured here: Max-Min RFU normalised activation; some inactives read as strong as hits;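 span of the calcium signal over five minutes; 0% = vehicle and 100% = native peptide agonist; compound fluorescence can raise it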
The depositor's hits bear a star; & = joins results of further samples. Some of the compounds tested. The share of hits here may be higher or lower than overall.

Results follow in this order: NPYLR7 ag, NPYLR7 ag max-min
(1) Cn1c(O)c(N=NC(=O)c2ccccc2N)c2ccccc21
    4, -1
(2) CCOc1cccc2sc(=NC(=O)c3cc(C)n(CC)n3)n(C)c12
    3, 2
(3) CN=C1SC(CC(=O)Nc2ccccc2F)C(=O)N1C (stereo not given)
    -4, -7
(4) COc1cccc(CN2CCC2(C)C(=O)NCc2cccnc2)c1F (stereo not given)
    5, -1
(5) COCCN(Cc1ccc(C)cc1)CC(O)COCc1ccccc1 (stereo not given)
    26, 30
(6) CCn1c(CN2CCCC2CC(O)c2cccs2)nc2c(F)cccc21 (stereo not given)
    2, 4
(7) Cc1ccc2nc(N3CCCCC3)c(C=C3SC(=S)N(CC(C)C)C3=O)c(=O)n2c1
    5, 4
(8) CCn1c(SCC(=O)N/N=C\c2c(O)ccc3ccccc23)nc2ccccc21
    2, 5
(9) c1ccc(OCCSc2nc3ccccc3n2CCOc2ccccc2)cc1
    -6, -7
(10) CCC(=O)c1c(-c2ccccc2)nc2n(C)c3ccccc3n12
    -23, -29
(11) CCn1nc(C(C)C)cc1C(=O)NC1CCCC(C)C1 (stereo not given)
    0, -1
(12) Cc1cccnc1C(NC(=O)C1CCN(Cc2ccc3ccccc3n2)CC1)c1ccc(Cl)cc1 (stereo not given)
    1, -11
(13) O=C(c1cnc(CN2CCCC2)s1)N1CC[C@@H](c2ccc(F)cc2)[C@H](O)C1
    -5, -8
(14) c1ccc(-c2nc3ncccn3c2CN2CCC3(CCNCC3)C2)cc1
    8, 5
(15) CCOC(=O)C(=O)N(C)c1c(CC)nc2c(OCc3ccc(OC)cc3)cccn12
    0, 1
(16) Cc1cccc(NC(=O)CSc2ccc3nnc(-c4cccnc4)n3n2)c1
    -1, -1
(17) CCCCc1ccc(Nc2cccc3c2C(=O)c2c(Nc4ccc(CCCC)cc4)cccc2C3=O)cc1
    -6, -6
(18) Oc1ccc(Cc2ccc(O)c3ncccc23)c2cccnc12
    10&0, 14&0
(19) CC1SC(=NS(=O)(=O)c2ccc(Cl)s2)N(C2CCCCC2)C1=O (stereo not given)
    5, 3
(20) CC(C)Oc1cc(N2CCCC(C(=O)c3nccn3C)C2)nc(N)n1 (stereo not given)
    13, 6
(21) Cc1nc(SCc2cccc(C(=O)NCCN3CCOCC3)c2)nc(N2CCN(C/C=C/c3ccccc3)CC2)c1C
    7, 16
(22) CCOCCCNC(=O)c1cc(NC(=O)c2cccc(Br)c2)ccc1N1CCC(Cc2ccccc2)CC1
    -1, 4
(23) COc1cc(S(=O)(=O)n2cccn2)c(C)cc1Br
    2, -2
(24) Cc1ccccc1C1=NOC(CN(Cc2ccccc2)CC(O)COCC(C)C)C1 (stereo not given)
    -2, 4
(25) CCc1cc(N2CCCCC2C)nc(SCc2ccc(C(=O)NCC3CCCO3)cc2)n1 (stereo not given)
    -6, -3
(26) O=C(c1ccc(F)c(F)c1F)N1CCC(Cc2ccc(-c3ccccc3)cc2)CC1
    25, 20
(27) CCNC(=O)C1(C)CCCN1C(=O)c1ccc(C#N)cc1 (stereo not given)
    -6, -6
(28) Cc1cc2oc(=O)cc(CNC(Cn3cccn3)c3ccccc3)c2cc1C (stereo not given)
    20, 12
(29) COCc1cc(C)nc(OCC(=O)N/N=C\c2ccc(-c3ccccc3[N+](=O)[O-])o2)c1C#N
    -8, -12
(30) COc1ccccc1/C=C1\SC(=S)N(CCC(=O)Nc2cccc(O)c2)C1=O
    -13, -17
(31) CCOC(=O)N(C)c1c(CC)nc2ccc(C(=O)NCCN(C)C)cn12
    4, 12
(32) CCc1nnc(NC(=O)C2CCCO2)s1 (stereo not given)
    1, 1
(33) COCCNC(=S)NN=C1CCC(C(C)(C)C)CC1 (stereo not given)
    0, 0
(34) O=C(CSCc1ccccc1Cl)Nc1ccccn1
    5, 1
(35) CC(C)C1CN(C(=O)c2ccccc2F)CCC(=O)N1Cc1ccc(F)cc1 (stereo not given)
    2, -1
(36) O=C(NCCCc1ccncc1)C1CCC(=O)N(CCN2CCOCC2)C1 (stereo not given)
    -4, -6
(37) COc1cccc(C(=O)N2CCCC(OCc3ccccc3F)C2)c1 (stereo not given)
    -3, -1
(38) O=C1c2ccccc2C(=O)N1C(=NS(=O)(=O)c1ccccc1)c1ccccc1
    8, 8
(39) C=CCN(Cc1cc(OC)ccc1OC)C(=O)Nc1ccccc1
    -7, 24
(40) CN(CCNC(=O)C(F)(F)F)C(=O)CN1C(=O)C(Oc2ccccc2)C1c1ccco1 (stereo not given)
    -2, 4
(41) Cc1cccc(-c2cn[nH]c2C2CCN(C(=O)c3nn(C)cc3Cl)CC2)c1
    -2, -3
(42) CCOC(=O)C1CCN(C(=O)c2cc(-c3ccc(OC)cc3)n(-c3cccc(OC)c3)c2C)CC1
    21, 33
(43) CSc1ccc(C(c2c(O)cc(C)n(Cc3ccccn3)c2=O)N2CCCCC2)cc1 (stereo not given)
    11, 8
(44) Cc1cc(-c2ccccc2)nc2cc(C(=O)Nc3ccc(F)cc3F)nn12
    -8, -11
(45) COCCNc1nc2c(c(=O)[nH]c(=O)n2C)n1Cc1ccccc1
    8, 5
(46) CCOC(=O)c1c(NC(=O)c2ccno2)c(-c2ccc3c(c2)OCO3)cn1C
    4, -1
(47) COc1cc2c(cc1OC)C1CN(C(=O)Nc3cccc(C(F)(F)F)c3F)CC(=O)N1CC2 (stereo not given)
    2, 2
(48) COCCn1c(C)cc(C(=O)CN2C(=O)NC3(CCCCCC3)C2=O)c1C
    -8, -10
(49) Cc1c(NC(=O)C2(C)Oc3ccccc3NC2=O)c(C(N)=O)nn1C (stereo not given)
    -3, -9
(50) CN(C)/C=C1\C(=O)C2SC=CC2S(=O)(=O)N1C (stereo not given)
    -3, -8
(51) CCCCC1CN(CCNC(=O)Cc2cc(OC)c(OC)c(OC)c2)Cc2ccccc2O1 (stereo not given)
    4, 4
(52) O=C1[C@@H]2[C@H](C(=O)N1Cc1ccc3ccccc3c1-c1ccccc1)[C@@H]1C=C[C@H]2CC1
    -6, -11
(53) CC(C(=O)N(C)C)N1CCc2c(F)ccc(F)c2C1 (stereo not given)
    0, -4
(54) CCC(CC)n1ncc(C)c1NC(=O)c1cccnc1OC
    -6, -10
(55) CC(C)n1c(=O)c(C(=O)N2CCC(NC(=O)OC(C)(C)C)C2)cc2cccnc21 (stereo not given)
    -2, -4
(56) Nc1c2c(nn1-c1ccccc1)CCC2
    -2, -4
(57) Cc1noc(-c2ccc(C(C)(C)C)cc2)c1C(=O)NCCOc1ccccc1
    -3, 1
(58) Cc1ccnn1-c1cccc(Br)c1
    -3, -7
(59) O=C(CCCc1ccc(F)cc1)NC1CCCN(C2Cc3ccccc3C2)C1 (stereo not given)
    2, -3
(60) CCN(CC)c1ccc2cc(-c3nnc(Nc4ccccc4Cl)s3)c(=O)oc2c1
    8, 9

Profiles as entered above.
Entry for COCCNc1nc2c(c(=O)[nH]c(=O)n2C)n1Cc1ccccc1 → NPYLR7 ag: 8; NPYLR7 ag max-min: 5
Entry for Cc1noc(-c2ccc(C(C)(C)C)cc2)c1C(=O)NCCOc1ccccc1 → NPYLR7 ag: -3; NPYLR7 ag max-min: 1
Entry for O=C(CCCc1ccc(F)cc1)NC1CCCN(C2Cc3ccccc3C2)C1 (stereo not given) → NPYLR7 ag: 2; NPYLR7 ag max-min: -3

Returning to the listing, starting four compounds before the break.
Results follow in this order: NPYLR7 ag, NPYLR7 ag max-min
(57) Cc1noc(-c2ccc(C(C)(C)C)cc2)c1C(=O)NCCOc1ccccc1
    -3, 1
(58) Cc1ccnn1-c1cccc(Br)c1
    -3, -7
(59) O=C(CCCc1ccc(F)cc1)NC1CCCN(C2Cc3ccccc3C2)C1 (stereo not given)
    2, -3
(60) CCN(CC)c1ccc2cc(-c3nnc(Nc4ccccc4Cl)s3)c(=O)oc2c1
    8, 9
(61) CCn1nc(CC(C)C)cc1C(=O)N1CCc2[nH]nc(-c3ccccc3)c2C1
    2, 0
(62) Cc1[nH]c2ccc(CNC3CCOCC3)cc2c1C
    4, 2
(63) CC(=O)Nc1ccc(SCC(=O)N2CCOCC2)nn1
    1, 2
(64) COC(=O)c1cccc(CC2(C)C(=O)Nc3ccc(OC(F)(F)F)cc32)c1 (stereo not given)
    1, 1
(65) Cc1ccc(Cl)cc1-n1c(SCc2ccc(F)cc2)nnc1C(C)NS(=O)(=O)c1ccc([N+](=O)[O-])cc1 (stereo not given)
    26, 20
(66) COc1nc(Nc2ccc(Cl)cc2)nc(OC)n1
    -4, -5
(67) O=C(CN(C(=O)Nc1c(Cl)cccc1Cl)C1CC1)N1CC(=O)N(c2ccc(Cl)cc2)C1
    -8, 4
(68) Cc1ccc(NC(=O)c2nnn(Cc3cc(C)ccc3C)c2N)c(C)c1
    -1, 7
(69) COC(=O)c1ccc(C2CC(=O)Nc3sc(C(=O)c4ccco4)c(N)c32)cc1 (stereo not given)
    4, 4
(70) CCOC(=O)c1nn(CC)c2c1CN(C(=O)Cc1ccc(N3CCNC3=O)cc1)CC2
    20, 4
(71) Cc1cc(NC(=O)C(C)N2CCN(c3ccccc3Cl)CC2)no1 (stereo not given)
    1, 30
(72) CCCCCNC(=O)N(Cc1ccncc1)CC1CCCN1CC (stereo not given)
    5, 2
(73) C=CCOCC(O)CN(CCN1CCOCC1)Cc1c(-c2ccccc2)noc1N(C)C(C)C (stereo not given)
    8, 8
(74) COc1cc(C)ccc1OC(C)C(=O)NC1(C#N)CCCCC1 (stereo not given)
    0, -1
(75) CCc1c(C)nn(-c2ccc(C(=O)N[C@@H]3CCCc4ccccc43)cc2)c1C
    -9, -13
(76) CC(=O)NC(CC(=O)Nc1ccc(Cl)c(C(F)(F)F)c1)c1cccs1 (stereo not given)
    1, 0
(77) Cc1cnc(CNC(=O)Cc2cccc(Cl)c2)o1
    -22, -23
(78) O=C(Nc1cccc(C(F)(F)F)c1)c1cc2ccccc2oc1=O
    -5, -10
(79) COc1cc(NCCCc2nnc3ccccn23)ncn1
    6, 2
(80) Cc1cc(C)n2[nH]c(=O)c(Br)c2n1
    -5, -8
(81) CCOC(=O)C1(CCCc2ccccc2)CCN(C(=O)c2ocnc2C)CC1
    -9, -11
(82) Cc1ccccc1C1CC(=O)c2cnc(N3CCCCC3)nc2C1 (stereo not given)
    -5, 3
(83) CN(C)C1CCN(C(=O)CC(=O)Nc2ccc(F)c(Cl)c2)C1 (stereo not given)
    6, -7
(84) Cc1ccc2cccc(OCCNC3CCSC3)c2n1 (stereo not given)
    -3, 6
(85) CC(C)C(=O)Nc1nnc(Cc2cccc(Br)c2)s1
    -1, -1
(86) CC(C)CN1C(=O)N(Cc2ccccn2)C(=O)C12CCN(Cc1cccnc1)CC2
    8, -4
(87) NS(=O)(=O)c1cnccc1NN1CCCCCC1
    -3, -7
(88) Cc1cc(C)n2nc(C(=O)N/N=C\C=C/c3ccccc3)nc2n1
    -19, -27
(89) CCOC(=O)c1cccc(NC(=O)Cn2nc(SCC)c(S(=O)(=O)c3ccccc3)c2N)c1
    -5, -11
(90) COCc1cc(C)nc(Nc2ccccc2OC)c1C#N
    13, 14
(91) CCOc1ccc(N(CC(=O)NCCSCc2ccccc2Cl)S(=O)(=O)c2ccc(SC)cc2)cc1
    -4, -8
(92) C=CCNc1nnc(SC(C)c2nc3sc(C)c(C)c3c(=O)[nH]2)s1 (stereo not given)
    -5, -7
(93) O=C1C(Nc2cccc(N3CCOCC3)c2)CCN1c1ccccc1 (stereo not given)
    2&7, 0&8
(94) Cc1ccccc1-[n+]1cc(-c2ccc(C(C)(C)C)cc2)n2c1SCCC2
    1, -1
(95) CC(=O)N[C@H](CS)C(=O)O
    -13, -19
(96) O=C(CCc1nnc(CCCCc2ccccc2)o1)NCC[C@@H]1C[C@@H]2C=C[C@H]1C2
    -2, -4
(97) Cc1nn(C)c(Cl)c1CNCC1COc2ccccc2C1 (stereo not given)
    -3, -3
(98) Cc1cc(OC(C)C(=O)Nn2cnnc2)ccc1Cl (stereo not given)
    4, 4
(99) COc1ccc2c(C)c(CCC(=O)Nc3ccc(S(=O)(=O)N4CCC(C)CC4)cc3)c(=O)oc2c1
    4, 4
(100) Nc1cc(N)nc(SCCC(=O)O)n1
    -4, -5

2 entries from above, bar-delimited.
No. | SMILES | NPYLR7 ag | NPYLR7 ag max-min
92 | C=CCNc1nnc(SC(C)c2nc3sc(C)c(C)c3c(=O)[nH]2)s1 (stereo not given) | -5 | -7
81 | CCOC(=O)C1(CCCc2ccccc2)CCN(C(=O)c2ocnc2C)CC1 | -9 | -11

Next structures
Results follow in this order: NPYLR7 ag, NPYLR7 ag max-min
(101) O=C(NCc1cccnc1)NC1CCCc2ccccc21 (stereo not given)
    -5, -8
(102) CN1CCCC(C(=O)Nc2ccc3ccccc3n2)C1 (stereo not given)
    -3, -4
(103) COc1cc(C)c(NC(=O)Cc2cc3c(cc2Br)OCCO3)cc1OC
    -4, -4
(104) COC(=O)c1cc(C(=O)NCc2csc3ccccc23)ccn1
    2, 1
(105) CN(C(=O)CSc1nc2sc3c(c2c(=O)n1C)CCCC3)C1CCCCC1
    -1, -3
(106) Cn1c(=O)c2c(nc(N3CCCC3)n2CCSc2ncccn2)n(C)c1=O
    -12, -15
(107) Cc1nn(C)c(C)c1NC(=O)C(C)OC(=O)c1ccc2c(c1)NC(=O)CS2 (stereo not given)
    1, 1
(108) Cc1cc(C(=O)NC2(C)CCS(=O)(=O)C2)c(C)n1-c1ccc2c(c1)OCCO2 (stereo not given)
    9, 6
(109) CCOC(=O)c1cc(C(O)(C(F)(F)F)C(F)(F)F)c(N=CN(C)C)o1
    5, 3
(110) Cc1ccc(Cl)c(NC(=O)CN2C(=O)NC(C)(c3ccccc3Cl)C2=O)c1Cl (stereo not given)
    -2, -5
(111) CN(C(=O)COCc1ccccc1)c1c(Cl)cccc1Cl
    1, 1
(112) C=c1ccccc1=c1[nH]/c(=C\C(C)=C\c2ccccc2)c(=O)o1
    -1, -1

Quoted at random: 3 compounds from above
Results follow in this order: NPYLR7 ag, NPYLR7 ag max-min
(108) Cc1cc(C(=O)NC2(C)CCS(=O)(=O)C2)c(C)n1-c1ccc2c(c1)OCCO2 (stereo not given)
    9, 6
(105) CN(C(=O)CSc1nc2sc3c(c2c(=O)n1C)CCCC3)C1CCCCC1
    -1, -3
(104) COC(=O)c1cc(C(=O)NCc2csc3ccccc23)ccn1
    2, 1
